Screening data deposited in PubChem by several laboratories.
Arbovirus inh: blocks arbovirus infection | arbovirus infection cell-based antiviral screen | inhibition, % at 10 µM | actives 0.37% (n = 200,000);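 active means inhibition from about 30%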;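 further: bluetongue infection of BSR cells; cell survival read as ATP light after 72 h; 0% = infected wells without compound and 100% = uninfected wells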
YopH inh: inhibitors of Yersinia enterocolitica YopH tyrosine phosphatase; fluorescence Ex485/Em525; inhibition, %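 (about 10 µM by stock and volumes)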; actives 0.16% (n = 140,000); AID 898;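 active means inhibition of 50% or more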;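 further: controls were vehicle for no effect and minimum signal wells for full effect; inactives centre near -20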
Mtb growth: M. tuberculosis H37Rv growth inhibitors, H37Rv strain (AID 1626) | actives 0.95% (n = 220,000) | inhibition, % at 10 µM; hits with a dose series show IC50 in µM | M. tuberculosis H37Rv growth inhibition; higher % means a stronger effect;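 active means confirmed in a dose series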;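 further: bacteria incubated seven days before Alamar blue readout; 0% = bacteria only wells and 100% = bacteria with antibiotic wells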
Mtb bLac sens: beta-lactam sensitization of Mtb H37Rv. M. tuberculosis H37Rv growth with meropenem, percent inhibition; hits of this screen are not shown here. inhibition, % at 25 µM. actives 0.27% (n = 330,000). AID 434955;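 active means about 74% or more and at least 40 points above the plate without the antibiotic, then above 30% in a dose series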;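 further: growth measured after seven days incubation then overnight dye step; 0% = bacteria only wells and 100% = bacteria with antibiotic; twin plates without the antibiotic show which effects depend on it; some results filed as inactive read as strong as hits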
RecA splice inh: blocks M. tuberculosis RecA intein splicing | P9WHJ3 | cell-free RecA intein splicing, fluorescence | inhibition, %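 (about 9 µM by stock and volumes)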 | actives 0.75% (n = 290,000) | AID 2221; in the data active means inhibition above about 30%;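 further: 0% = vehicle wells and 100% = reference inhibitor control wells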
Target sequence (P9WHJ3 whole entry, looked up, canonical isoform): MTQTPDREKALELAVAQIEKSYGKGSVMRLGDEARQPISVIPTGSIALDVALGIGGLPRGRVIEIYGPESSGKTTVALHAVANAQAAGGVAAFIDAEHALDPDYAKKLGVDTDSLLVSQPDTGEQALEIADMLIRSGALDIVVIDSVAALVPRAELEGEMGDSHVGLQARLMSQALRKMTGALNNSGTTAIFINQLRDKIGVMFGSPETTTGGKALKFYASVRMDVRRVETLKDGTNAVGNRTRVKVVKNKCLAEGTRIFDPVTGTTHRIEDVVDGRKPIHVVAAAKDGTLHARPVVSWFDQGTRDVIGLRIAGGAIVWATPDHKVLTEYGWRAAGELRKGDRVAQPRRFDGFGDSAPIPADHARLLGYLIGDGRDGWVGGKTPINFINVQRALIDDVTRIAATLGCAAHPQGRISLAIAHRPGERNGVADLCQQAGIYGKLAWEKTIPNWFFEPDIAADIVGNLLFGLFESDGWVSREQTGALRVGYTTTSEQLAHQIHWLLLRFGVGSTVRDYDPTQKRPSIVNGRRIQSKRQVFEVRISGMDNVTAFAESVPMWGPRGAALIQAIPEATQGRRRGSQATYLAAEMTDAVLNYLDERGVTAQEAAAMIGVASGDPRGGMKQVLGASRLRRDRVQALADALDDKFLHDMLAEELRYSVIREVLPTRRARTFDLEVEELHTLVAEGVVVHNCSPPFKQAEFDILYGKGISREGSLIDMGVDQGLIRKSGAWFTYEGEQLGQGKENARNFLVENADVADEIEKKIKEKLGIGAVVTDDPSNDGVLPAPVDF
Arbovirus inh repeat: recorded beside Arbovirus inh, whose call it bears; inhibition, %; measured here: 10K subset replicate screen; many hits read low in the repeat;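 first of two repeat runs on a subset; 0% = infected and 100% = uninfected wells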
The depositor's hits bear a star; / = no result given. Only part of the results is shown; count on the stated rates, not on these rows.

SMILES	Arbovirus inh	YopH inh	Mtb growth	Mtb bLac sens	RecA splice inh	others
CCCC(NC(=O)CCl)c1ccccc1 (centres undefined)	8	-27	4%	84	8.0
O=C(c1ccc(F)cc1)N1CCC(O)(c2cccnc2)CC1	8	-47	2%	-3	-0.1
CCN(CC)c1ccc(NC(=S)NC(=O)c2cccs2)cc1	-9	/	2%	4	-2.3
Cc1ccccc1OCCOc1ccccc1C=C(C#N)C#N	13	-50	12%	6	/
Cc1cc2nc(-c3cc(N4CCOCC4)ccc3[N+](=O)[O-])ccn2n1	7	/	1%	-12	-5.0
Cc1ccc(O)c(C2=Nc3ccccc3N=C(c3cccc([N+](=O)[O-])c3)C2)c1	2	/	4%	2	0.7
CCn1c(O)c(/C=C2\C=Nc3ccccc32)sc1=Nc1ccccc1	2	-22	6%	0	1.0
COc1ccc(CCNC(=O)CN(c2ccccc2)S(C)(=O)=O)cc1	-4	/	-2%	-10	2.2
COc1ccc(NS(=O)(=O)c2ccc(C)c(C(=O)NCC(c3ccco3)N3CCCCC3)c2)cc1 (centres undefined)	/	/	/	-2	3.2
Cn1cccc1C(=O)C(=O)Nc1ccc(F)c(F)c1	5	/	-21%	-8	-1.1
CN(C)/C=C/C(=O)c1cnc(-c2ccccn2)s1	0	/	1%	-4	1.3
COc1cccc(CC2(CO)CCN(Cc3cnc(-c4cccc(C)c4)nc3)CC2)c1	6	/	-4%	63	-1.0
CC(C)C(NC(=O)c1ccco1)C(=O)NCc1ccc(C(=O)O)cc1 (centres undefined)	/	/	/	-2	-4.6
Cc1ccc(C(=O)Nc2ccc3cn[nH]c3c2)cc1S(=O)(=O)N1CCOCC1	-9	/	-9%	-3	6.6
Cc1cccc(N2C(=O)SC(SC(=Nc3ccccc3)Nc3ccccc3)C2=O)c1 (centres undefined)	7	-19	2%	5	1.8

Ordered by number of heavy atoms (ascending): some entries from above.
SMILES	Arbovirus inh	YopH inh	Mtb growth	Mtb bLac sens	RecA splice inh	others
Cn1cccc1C(=O)C(=O)Nc1ccc(F)c(F)c1	5	/	-21%	-8	-1.1
Cc1ccccc1OCCOc1ccccc1C=C(C#N)C#N	13	-50	12%	6	/
Cc1ccc(C(=O)Nc2ccc3cn[nH]c3c2)cc1S(=O)(=O)N1CCOCC1	-9	/	-9%	-3	6.6

The list continues:
SMILES	Arbovirus inh	YopH inh	Mtb growth	Mtb bLac sens	RecA splice inh	others
Nc1cc(=O)[nH]c(SCC(=O)Nc2ccc(S(=O)(=O)N3CCCCC3)cc2)n1	-3	/	-13%	-1	1.5
O=C(Nn1c(C2CC2)nc2ccccc2c1=O)c1ccco1	12	-6	-3%	7	0.1
O=C(NCc1ccc(/C=c2\sc3n(c2=O)CCN=3)o1)C(=O)Nc1ccccc1	-4	/	3%	-2	-1.1
CC(C)(C)CN1CCNC(=O)C1CC(=O)NCc1cccc(-n2cccn2)c1 (centres undefined)	-4	/	6%	-2	-1.8
O=C(Nc1nc(-c2ccco2)c(-c2ccco2)s1)c1ccco1	/	/	/	5	-3.9
COc1ccc(OC)c(CCNC(=O)CCc2nnc3ccc(N4CCCC4)nn23)c1	/	/	/	16	-0.5
Cc1noc(C)c1COC(=O)Cn1c(C)nc2ccccc21	-2	-44	5%	-4	-1.8
Cc1ccc(S(=O)(=O)NCC(c2ccco2)N2CCc3ccccc32)cc1 (centres undefined)	/	/	/	-8	9.5
O=S1(=O)CCC(NC(=S)SCCOc2ccccc2)C1 (centres undefined)	-8	/	-1%	11	8.3
CC(C)OC(=O)n1c(=S)oc2ccccc21	4	-14	-10%	12	1.6
CC(C)CC(NC(=O)CC12CC3CC(CC(C3)C1)C2)C(=O)NC1=NCCS1 (centres undefined)	-4	/	4%	-6	0.2
CSCC[C@@H](C(=O)O)N1Cc2ccccc2C1=O	11	-47	-3%	-1	13	Arbovirus inh repeat=7
COc1ccc2sc(C)[n+](C)c2c1	-6	/	3%	4	-5.2
CN(C)NC(=S)Nc1cccc(C(F)(F)F)c1	/	/	-11%	99	-1.0
Cc1ccc(-c2nnn(CC(=O)N(CCCO)C(C(=O)NC3CCCC3)c3ccc(Cl)cc3)n2)o1 (centres undefined)	/	/	/	5	-2.0
CCOc1ccc(NC(=O)NNC(=O)C2CCC(C(C)(C)C)CC2)cc1 (centres undefined)	-4	/	2%	-1	-0.8
O=C(CSc1ccccn1)Nc1ccc(Cl)c([N+](=O)[O-])c1	-1	/	-4%	-3	0.3
Cc1cc(N2CCCCC2)n2ncc(-c3ccccc3)c2n1	10	-35	14%	9	-15
O=C1S/C(=C/c2ccccc2)C(=O)N1CC(O)Cn1c2ccccc2c2ccccc21 (centres undefined)	5	-16	2%	2	1.3
CCOC(=O)Cn1c(S(=O)(=O)Cc2ccc(Cl)cc2)nc(-c2ccccc2)c1-c1ccccc1	10	-49	-15%	4	-1.5
COC(=O)c1ccccc1NC(=S)NC(=O)c1ccc(C)cc1	3	-38	0%	-4	36*
COc1ccc(OC)c(CN2CCC(C(=O)N3CCN(c4ccccc4F)CC3)CC2)c1	-11	-1	-1%	-5	1.2
CC1=C(C(=O)Nc2ccccc2)C(c2ccco2)C(C#N)=C(SCc2ccccc2)N1 (centres undefined)	-4	-32	16%	95	11	Arbovirus inh repeat=-4
CC(C)CCNC(=O)C(c1ccncc1)N(CC1CCCO1)C(=O)Cn1nnc(-c2ccc(F)cc2)n1 (centres undefined)	-2	/	13%	6	-1.0
COc1ccccc1-c1nnc(C2CCN(S(=O)(=O)c3ccccc3[N+](=O)[O-])CC2)o1	/	/	/	-1	-0.9
CC(=O)c1c(N2CCOCC2)[nH]c(-c2ccccc2)nc1=S	6	-23	-1%	83	2.4
CCOc1ccc2nc(N(CCN(CC)CC)C(=O)/C=C/c3cccs3)sc2c1	/	/	/	2	2.6
O=C(CCSc1nnc(-c2ccco2)o1)N1CCOCC1	12	/	-8%	12	0.5
COCC(=O)Nc1cc(C(=O)NCCc2ccccc2)ccc1Cl	-5	-43	7%	-2	-5.9
O=C(CCCCCNC(=S)Nc1ccccc1)C[N+](=O)[O-]	9	/	-2%	2	9.4
CNC(=O)NC(=O)Cn1cnc2sc(-c3ccccc3)cc2c1=O	/	/	-2%	10	2.0
CC(C)C(=O)Nc1c2c(nn1-c1ccc(F)cc1)CS(=O)(=O)C2	/	/	/	-3	-0.7
CCOC(=O)c1nnn(-c2nonc2N)c1C	15	-26	-14%	1	0.8
COc1ccc(Cl)cc1NC(=O)CN(C)C(=O)c1cc2ccccc2cc1O	/	/	/	-9	-0.2
COc1ccc(C(=O)NNC(=O)CSc2nnc(C)n2CC2CCCO2)cc1 (centres undefined)	-2	/	-4%	6	1.8
O=C(Nc1ccccc1C(F)(F)F)c1c(F)cccc1Cl	1	/	2%	-5	-0.8
N#CC(C#N)=Cc1cccn1-c1ccc(S(N)(=O)=O)cc1	3	/	-5%	-12	3.4
O=C(CSc1nc(=O)n(CCN2CCOCC2)c2c1CCC2)Nc1ccc(OC(F)(F)F)cc1	/	/	/	-3	2.7
COc1ccc(CCNC(=O)Cn2nnc(-c3ccc(N4CCOCC4)cc3)n2)cc1OC	-7	-50	-8%	0	1.4
CC(C)C[C@H](NC(=O)c1nc[nH]c1C(=O)NCc1ccccc1)C(=O)OC(C)(C)C	-13	/	-1%	16	-2.4
CCOC(=O)COn1c(SCC(=O)OCC)nc2ccccc2c1=O	5	-3	5%	19	1.2
O=C(CCc1ccccc1)NCCc1nc2ccccc2[nH]1	-7	/	-3%	2	0.4
Cc1ccc(CSCC(=O)NN=C2CCN(C)CC2)cc1	1	5	52%	9	0.0
S=c1[nH]nc(CCc2nc3ccccc3[nH]2)n1-c1ccccc1	-2	/	-3%	0	-1.4
O=C(Cc1ccc(Cl)c(Cl)c1)Nc1cccc2ncccc12	15	/	7%	3	-1.3
COCCN(C(=O)CCl)C(C(=O)NC1CCCCC1)c1ccccc1C (centres undefined)	-5	4	3%	0	47*
CCn1cc([N+](=O)[O-])c(C(=O)N2N=C(c3ccccc3)CC2c2ccc([N+](=O)[O-])cc2)n1 (centres undefined)	3	-13	8%	1	1.8
CNC(=S)N(C)[C@H]1c2c(ccc3ccccc23)OC[C@H]1CO	10	/	0%	-4	1.7
CCCCn1c(=S)[nH]c2cc(S(=O)(=O)N3CCCCC3)ccc21	-6	-20	/	-3	0.4
O=C(Nc1cccc(F)c1)c1ccc2ncsc2c1	/	/	/	-1	-1.4
COc1ccc(NC(=O)/C=C/c2cccc(F)c2)cn1	0	-7	20%	17	6.5
COc1ccc(CCNc2ccc(C(CC(N)=O)NC(=O)Cc3cccc4ccccc34)cc2[N+](=O)[O-])cc1 (centres undefined)	/	/	-1%	-2	2.5
Cc1onc(-c2c(F)cccc2Cl)c1C(=O)Nc1nnc(C(F)(F)F)s1	/	/	/	-2	2.4
Cc1cccc(NC(=O)/C(C#N)=C/c2cccc([N+](=O)[O-])c2)n1	/	/	/	4	-0.9
c1cncc(-c2nc(-c3cccs3)cs2)c1	-8	-35	-1%	0	3.3
O=C1c2cc3ccccc3c(-c3ccccc3)c2C(=O)N1c1ccccn1	10	-18	11%	11	-2.3
Oc1csc(Cc2nc(-c3ccccc3F)cs2)n1	-8	/	3%	0	-0.7
Cc1cc(Nc2cc(Cl)nc(Sc3ccc(NC(=O)C4CC4)cc3)n2)n[nH]1	/	/	54%	72	2.1
N/C(=N\OS(=O)(=O)c1ccc2ccccc2c1)c1cccnc1	1	/	5%	3	2.1
O=C(c1ccccc1)c1nc2ccccc2[nH]c1=O	6	-30	-2%	-5	4.7

Looked up one by one from the list above, 5 records:
SMILES	Arbovirus inh	YopH inh	Mtb growth	Mtb bLac sens	RecA splice inh	others
CNC(=S)N(C)[C@H]1c2c(ccc3ccccc23)OC[C@H]1CO	10	/	0%	-4	1.7
Oc1csc(Cc2nc(-c3ccccc3F)cs2)n1	-8	/	3%	0	-0.7
O=C(Nc1cccc(F)c1)c1ccc2ncsc2c1	/	/	/	-1	-1.4
O=C1c2cc3ccccc3c(-c3ccccc3)c2C(=O)N1c1ccccn1	10	-18	11%	11	-2.3
Cc1cccc(NC(=O)/C(C#N)=C/c2cccc([N+](=O)[O-])c2)n1	/	/	/	4	-0.9

(more compounds)
SMILES	Arbovirus inh	YopH inh	Mtb growth	Mtb bLac sens	RecA splice inh	others
Cc1nc2ccccc2nc(=O)c1NNc1ccccc1	-1	1	71%	/	/
Cn1c(=O)n(CC(=O)Nc2ccc(F)cc2)c2ccccc21	-2	-20	-6%	-4	2.3
CCCN(CCC)CCOc1cc(C)ccc1C(C)C	1	-21	-3%	-4	0.9
Cc1ccc(C2NC(=O)c3ccccc3N2)s1 (centres undefined)	-16	-6	5%	-9	-3.1
CCCCn1c(SCC(=O)N(CC)C2CCS(=O)(=O)C2)nc2cc(S(N)(=O)=O)ccc21 (centres undefined)	-4	/	/	1	3.4
CC(C)C(=O)NC(=S)Nc1ccccc1C(=O)NC1CCCCC1	1	-22	1%	37	0.4
Cc1ccc(Cl)cc1NC(=O)CN1CCN(S(=O)(=O)N2CCOCC2)CC1	/	/	/	-8	-0.1
COc1ccc(NC(C)c2cc(Cl)ccc2O)cc1 (centres undefined)	-24	10	>100µM*	95	3.5
O=C(CCn1c(=O)oc2ccccc21)NC1=NCCS1	0	-4	-5%	-9	-0.7
COc1ccc(N2CCN(C(=O)CN(c3ccc(Br)cc3)S(C)(=O)=O)CC2)cc1	6	-59	-3%	-2	-0.5
O=C1N/C(=N/Nc2ccccc2)S/C1=C\c1ccccc1	-22	-3	/	82	11
COc1ccc(-c2cc(C(=O)N3CCN(C(=O)c4ccco4)CC3)[nH]n2)cc1	/	/	/	6	0.3
COc1ccc(CSCCc2n[nH]c(=S)n2-c2ccccc2)cc1C	2	/	2%	-7	2.5
C=C(C)Cn1c(N)cc(=O)nc1SCC(=O)Nc1cccc(C(F)(F)F)c1	/	/	/	3	-0.3
CCN(CCCNC(=O)CC(C(=O)N1CCc2ccccc21)n1ccnc1)c1cccc(C)c1 (centres undefined)	6	-53	0%	0	0.7
CC(C)NS(=O)(=O)c1ccc(NC(=O)C2CC3C=CC2C3)cc1 (centres undefined)	7	-39	2%	-10	1.9
O=C(Nc1ccc2c(c1)C(=O)OC2)c1ccc(C(F)(F)F)cc1	/	/	/	-5	-1.7
CC(C)(C)C(=O)OCc1nc(-c2ccc(Cl)cc2)cs1	/	/	-4%	-5	3.6
CN1CCN(C(=O)C2=C[C@H](c3ccc4c(c3)OCO4)C[C@H](OCc3ccc(CO)cc3)O2)CC1	3	/	-10%	-7	-5.4
O=C1c2ccccc2S(=O)(=O)c2cc(C(=O)N3CCC(C(=O)N4CCCCC4)CC3)ccc21	/	/	1%	-3	0.3
O=S(=O)(c1ccc(Br)s1)N1CCN(c2ccccn2)CC1	5	1	-1%	1	1.3
